Bioassay records (PubChem BioAssay)
AF4-AF9 inh: inhibitors of AF4 peptide binding to AF9, primary screen, biochemical, AlphaScreen, biotin-AF4 peptide, FLAG-AF9, single point. Protein AF-9 (Homo sapiens), P42568. inhibition, % at 10 µM. actives 0.47% (n = 350,000);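 active means every replicate reaching a set inhibition limit, whatever the replicate mean, cut at about 25% in these data; inconclusive means mean inhibition reaches that limit but some replicates miss it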;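 further: 0% = plate neutral control median and 100% = total signal loss; the record names both 10 and 1 µM as test concentration; the first replicate is given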
Target sequence (P42568 whole entry, looked up): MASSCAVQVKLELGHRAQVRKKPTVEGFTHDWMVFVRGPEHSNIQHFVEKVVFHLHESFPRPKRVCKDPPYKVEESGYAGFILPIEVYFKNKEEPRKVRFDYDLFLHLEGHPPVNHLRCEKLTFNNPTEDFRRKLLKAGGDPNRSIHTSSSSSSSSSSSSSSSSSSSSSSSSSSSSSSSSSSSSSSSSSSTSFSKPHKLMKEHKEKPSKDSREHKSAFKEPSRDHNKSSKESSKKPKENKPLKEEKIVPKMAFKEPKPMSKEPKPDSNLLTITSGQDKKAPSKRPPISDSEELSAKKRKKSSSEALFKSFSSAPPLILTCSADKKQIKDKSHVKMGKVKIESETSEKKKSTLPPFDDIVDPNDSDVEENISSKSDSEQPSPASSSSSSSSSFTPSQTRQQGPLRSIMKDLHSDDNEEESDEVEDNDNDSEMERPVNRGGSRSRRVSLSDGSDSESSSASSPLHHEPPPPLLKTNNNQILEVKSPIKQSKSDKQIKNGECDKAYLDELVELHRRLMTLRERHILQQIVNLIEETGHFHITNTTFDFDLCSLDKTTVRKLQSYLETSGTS
Calb FLC: C. albicans growth inhibition with fluconazole, primary screen, CaCi-2 strain, Alamar Blue fluorescence | growth inhibition, % (no concentration beside the values) | C. albicans CaCi-2 (fluconazole-resistant clinical isolate) + fluconazole, 48 h | actives 0.57% (n = 300,000);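 active means most replicates above 75%; inconclusive means exactly half above 75%; inactive means most below 75%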;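 further: all wells also contain fluconazole at 8 µg/ml as a sub-toxic cotreatment; 0% = median of DMSO wells and 100% = median of geldanamycin control wells; wells of about 8 µL received 7.5 nL stock; the first replicate is given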
Bfl-1 A1 inh: caspase 3/7 activation in MEF A1-2A-BIM cells, primary screen, A1 inhibitor project, cell-based, luminescence, HTS; caspase activation, % (concentration not given with the values); Caspase-Glo 3/7 luminescence, 3 h; percent of clofoctol response, vehicle zero; AID 2462, 2010; actives 0.066% (n = 330,000);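 active means over half of replicate activation scores above 10%, or exactly half above 10 with the replicate mean above 10; inconclusive means replicate mean below 10 yet half the replicates above 10; inactive means over half of replicates below 10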;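 further: wells of about 30 µL received 50 nL stock; many hits fall short of the cut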
rRNA inh HTS: reduced GFP signal of wild-type E. coli, primary screen, bacterial rRNA inhibitor project, GFP/RFP fluorescence, OD600, single point; actives 1.6% (n = 350,000); E. coli WT GFP vs humanized-ribosome RFP mutants, 24 h; hits give low values; DMSO median 0, no signal -100; GFP signal change (wild-type ribosome), % (concentration not given with the values);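 active means significant combined selectivity score with lowered wild-type GFP, culture density cut under 30%, mutant RFP and density less affected; inactive means any of these conditions unmet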; further: one replicate is shown; some compounds called inactive have numbers as strong as hits
Beta cell apopt: inhibitors of cytokine-induced beta cell apoptosis, primary screen, luminescence. AID 435005, 2010. INS-1E cytokine-induced death, ATP luminescence, 48 h; percent of positive-control rescue, neutral wells zero. actives 0.8% (n = 300,000). protection from apoptosis, % (test concentration not listed);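 active means all replicates at 75% or more, or half of them and the mean; inconclusive means half reach 75% but not the mean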;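 further: 0% = cytokine-treated negative control wells and 100% = positive control rescue; higher means more ATP so stronger rescue from cytokine killing; wells of about 40 µL received 100 nL stock; the first replicate is given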
T cruzi repl: inhibitors of intracellular T. cruzi growth, primary screen, luminescence, NIH3T3 host cells. T. cruzi beta-gal in NIH3T3, 90 h. inhibition, % (no concentration beside the values). actives 1.4% (n = 300,000). AID 1885, 2009;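 active means mean inhibition across valid replicates above about 55%, limit read from the data; inconclusive means mean below that limit but half or more replicates reach it; inactive means mean below it, under half of replicates reach it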;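 further: signal also drops with host cell toxicity which is not excluded here; 0% = plate median of DMSO wells and 100% = zero luminescence signal; higher percent means less beta-gal luminescence so fewer parasites; stock transfer was 50 nL into about 50 µL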
RanGTP-Impb inh: inhibitors of RanGTP-importin-beta interaction, primary screen, biochemical, FRET, CFP-Ran, YFP-importin-beta, homogeneous; inhibition, % (no concentration beside the values); cell-free CFP-Ran/YFP-importin-beta FRET ratio; actives 1.1% (n = 300,000);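 active means most replicates above 15%; inconclusive means exactly half above 15%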;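 further: 0% = DMSO wells and 100% = Ran loaded with GDP instead of GTP; wells of about 40 µL received 100 nL stock; the first replicate is given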
Vif A3G: inhibitors of Vif binding to APOBEC3G peptide, primary screen, biochemical, TR-FRET, GST-Vif 1-94, biotin-A3G peptide, dose response retest (AID 1117319); TR-FRET GST-Vif / biotin-A3G peptide binding; higher % means a stronger effect; test concentration not given here; strong numbers were not always called active; inhibition, %; hits with a dose series show IC50 in µM; actives 0.57% (n = 260,000);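 active means above the screen mean plus three standard deviations and confirmed in dose response; inconclusive means results disagree or hit not tested in dose response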;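 further: Vif residues 1-94 fused to GST binding biotinylated APOBEC3G peptide 110-148; 0% = full assay without inhibitor and 100% = GST in place of GST-Vif; retest series ran down from 100 µM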
rRNA inh HTS OD600: also measured in rRNA inh HTS; calls as there; OD600 change, %; measured here: OD600 growth;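 optical density of the mix in the first replicate; 0 = DMSO median and -100 = no signal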
rRNA inh HTS RFP: recorded beside rRNA inh HTS, whose call it bears; RFP signal change, %; measured here: RFP humanized mutant strains;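 first replicate; 0 = DMSO median and -100 = no signal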
An asterisk follows results filed as active; ? = inconclusive; / = not tested or not shown; & = joins results of further samples; ! = not confirmed by another sample.

SMILES	AF4-AF9 inh	Calb FLC	Bfl-1 A1 inh	rRNA inh HTS	rRNA inh HTS OD600	rRNA inh HTS RFP	Beta cell apopt	T cruzi repl	RanGTP-Impb inh	Vif A3G
Cc1cc(C)cc(C(=O)Oc2coc(CSc3nnc(NC(=O)C4CC4)s3)cc2=O)c1	/	1	-1.8	/	/	/	-1	-16	-1.1	/
N#CCCCc1cc2ccccc2cn1	0.9	/	0.0	2	6	0.7	-5	/	/	-4%
CCN(CC)N=Nc1ccc(S(=O)(=O)Nc2nc(C)cc(C)n2)cc1	-4.0&-5.5	-12&10	0.8&-0.1	-10&-11	-8&-14	0.1&-4.7	-7&-1	-7&-6	4.1&6.4	3%
Cc1nc2ccccc2c2c1C(=O)N(Cc1cccnc1)C2=O	/	0	-0.3	/	/	/	-2	-12	0.9	2%
CCc1ccc(-c2cc(C(F)(F)F)n3nc(C(=O)Nc4c(C)nn(Cc5ccc(F)cc5)c4C)cc3n2)s1	-4.2	2	-0.1	10	27	8.2	6	51	58*	-4%
COc1ccc(C2NC(=S)NC3=C2CCCC3=C2SCCS2)cc1 (stereo not given)	-1.8	4	1.0	12	12	4.3	/	11	18*	-1%
COCC(C)OC(=O)c1c(N)n(CC(C)C)c2nc3ccccc3nc12 (stereo not given)	/	26	-0.4	/	/	/	-7	15	21*	4%
O=C1OC(c2cccs2)=N/C1=C\c1ccc(-c2ccccc2Cl)o1	0.1	-3	/	-20	-25	-8.0	/	3	-2.3	?
CCN(Cc1ccccc1)C(=O)c1ccc(C(=O)N(CC)Cc2ccccc2)cc1	-0.7	3	-0.3	-27	-22	5.5	-2	10	0.9	/
CCCCNC(=O)Nc1ccccc1CC	-17	/	1.5	9	10	-1.0	-2	-18	4.7	5%
COc1ccc(S(=O)(=O)N2CCCOC2CNC(=O)C(=O)NCc2ccccn2)cc1 (stereo not given)	-1.2	-2	0.6	/	/	/	-8	-6	1.4	4%
CC(=O)Nc1ccccc1C(=O)C(=O)Nc1cccc(C(=O)NCC2CCCO2)c1 (stereo not given)	0.8	-9	0.4	1	0	-2.1	-5	-9	6.9	8%
COc1cc(/C=C/C(=O)Nc2nnc(CC(C)(C)C)s2)cc(OC)c1OC	-9.6	15	-0.4	-2	1	-1.8	-3	28	-0.9	29%
O=C(NCCC1CCCCN1S(=O)(=O)c1ccc(F)cc1)C(=O)Nc1ccccc1 (stereo not given)	-15	7	0.6	-14	-10	-0.2	/	-7	2.4	/
CCOC(=O)N1CCN(C(=O)C2CCN(C(=O)c3ccc([N+](=O)[O-])cc3)CC2)CC1	-0.3	7	-1.2	7	7	0.8	1	1	1.7	/
COc1ccc(N2C(=O)N3[C@H](c4ccc(Cl)cc4)[C@@H]4C(=O)N(C5CCCCC5)C(=O)[C@@H]4[C@]3(C)C2=O)cc1	-2.5	-5	1.3	11	11	1.2	-4	-2	-1.4	/
COc1ccc(/C=N/NC(=O)Cc2ccc(Cl)cc2)cc1OC	0.6	-10	0.0	-3	-11	-0.5	-8	-4	2.1	1%
Cc1ccc2c(c1)C1CN(C)CCC1N2S(=O)(=O)c1ccc(Oc2ccc([N+](=O)[O-])cc2)cc1 (stereo not given)	27*!	/	0.8	1	-5	9.7	0	/	/	-9%
O=C(Nc1ccccn1)c1ccc(Br)s1	-0.1	7	-7.3	-8	-24	1.4	/	3	5.0	-8%
CCn1cc(C(C)(C)C)c(C#N)c1NC(C)=O	/	-4	0.0	/	/	/	-9	3	-0.3	-4%
N#C/C(=N\Nc1cccc(C(F)(F)F)c1)C(=O)c1ccsc1	2.4	23	-1.9	/	/	/	47	-12	0.0	/
CC(=O)C[C@H]1c2ccccc2S(=O)(=O)N1c1ccccc1	-10	-8	1.0	6	7	-2.7	2	-15	-0.4	/
C=CCn1c(N)c(C(=O)Nc2ccccc2OC)sc1=S	/	-5	0.5	/	/	/	4	3	6.9	?
CCOc1cc(CNc2ncnc3nc[nH]c23)ccc1OC	0.9	-10	-0.4	4	4	-1.8	-3	-14	2.2	-4%
Cc1ccc(C(=O)N/N=C\c2ccc([N+](=O)[O-])o2)cn1	-2.7	-1	-0.4	-48	-47	-11	-4	58*	0.4	/
Further structures follow.
SMILES	AF4-AF9 inh	Calb FLC	Bfl-1 A1 inh	rRNA inh HTS	rRNA inh HTS OD600	rRNA inh HTS RFP	Beta cell apopt	T cruzi repl	RanGTP-Impb inh	Vif A3G
CC(C)(C)c1ccc(C(=O)COC(=O)CN2C(=O)NC3(CCCC3)C2=O)cc1	-2.3	1	0.5	1	8	5.8	-5	-13	0.0	/
CCNC(=O)C/C(C)=N/NC(=O)C1CCCCC1	/	30	-0.1	/	/	/	-8	-9	-2.3	/
COc1ccc(S(=O)(=O)N2CCCCCC2)cc1C(=O)OCC(=O)NC(C)(C)C	2.5	-19	-0.1	-2	-8	-0.1	-1	4	-0.5	-7%
Cc1nn(CCC(=O)O)c(C)c1C	/	4	0.4	/	/	/	1	-10	-1.4	?
CCN(Cc1ccccc1)C(=O)CC1Oc2ccccc2NC1=O (stereo not given)	-7.8	1	-0.5	-4	-4	-1.7	/	-19	-2.4	-2%
CCCCCCC(=O)Nc1ccc(S(=O)(=O)Nc2onc(C)c2C)cc1	/	1	-1.0	-12	-8	-2.9	-6	-17	-0.4	/
CCC(=O)N1c2ccccc2NC2=C(C(=O)CC(C)(C)C2)C1c1cccnc1 (stereo not given)	-0.2	-15	0.9	18	12	2.8	-6	0	/	?
O=S(=O)(CCc1ccccc1)/N=C/c1cccs1	/	-7	1.0	/	/	/	-1	-2	2.0	-2%
O=C(O)c1ccccc1C(=O)OCc1c(-c2ccccc2)ncc2ccccc12	-4.3	/	0.6	-4	-9	-2.6	-2	/	/	/
COc1cccc(NC(=O)CSc2nnc(-c3cc(C)n(-c4ccccc4)c3C)o2)c1	/	9	0.5	/	/	/	0	0	2.2	1%&7%
CCOC(=O)C1CCN(C(=O)C2CCCN(c3ncnc4c3nc3n4CCCCC3)C2)CC1 (stereo not given)	-5.1	10	-1.1	-12	-6	-0.5	0	0	-2.4	/
O=C(N1CCCCC1)C1(S(=O)(=O)c2ccccc2)CC=CC1	44*	-11	-0.1	6	8	-4.6	-3	-11	4.0	/
CN(C)S(=O)(=O)c1cccc(NC(=O)c2cccc(S(=O)(=O)N3CCCCC3)c2)c1	-12	-9	0.5	-7	-20	0.1	-4	-13	0.1	/
O=C1c2cccc3cccc(c23)C(=O)N1c1cccnc1	11	-3	0.4	0	6	2.9	/	-28	?	-2%
Cc1ccc(S(=O)(=O)N2CCCC2C(=O)N(C)Cc2cccs2)cc1 (stereo not given)	/	33	-1.6	/	/	/	-11	1	-1.0	76%
Cc1c(NC(=O)COC(=O)c2ccc[nH]c2=O)c(=O)n(-c2ccccc2)n1C	6.2	1	0.3	3	7	0.1	-6	-10	-3.1	6%
CCS(=O)(=O)c1ccc(-c2cccc(NC(=O)c3ccco3)c2)nn1	0.5	3	0.3	5	3	-0.4	5	3	-2.6	-5%
COc1ccc2sc(-c3ccc(SC)cc3)c(C#CCO)c2c1	3.7	/	-1.3	-28	-26	-1.7	16	/	/	/
CCCN(C(=O)CCNC(=O)c1ccc(Cl)cc1)c1c(N)n(Cc2ccccc2)c(=O)[nH]c1=O	-3.2	/	-0.6	/	/	/	-5	/	/	-5%
COc1cc(OC)cc(C(=O)NCC(=O)Nc2ccc(-c3ccccc3)cc2)c1	-1.3	-7	-1.3	-19	-22	-6.8	7	14	1.3	/
CC(C)(C)OC(=O)NC(CNCc1ccccc1)Cc1ccccc1 (stereo not given)	/	-3	-0.7	4	4	1.7	-3	-2	-4.6	/
CN(C)S(=O)(=O)N(CC(=O)N(Cc1ccccc1)Cc1ccccc1)c1ccccc1	/	6	-0.3	/	/	/	3	16	-1.9	16%
O=C(CSc1nc(C(F)(F)F)cc(=O)[nH]1)NCC1CCCO1 (stereo not given)	0.2	-6	-0.1	9	6	0.2	-8	-3	1.7	5%
C(=C\CSc1nnnn1-c1ccccc1)/CSc1nnnn1-c1ccccc1	/	-8	0.0	/	/	/	-2	21	-0.7	-3%
O=C(COc1ccc2ccc(=O)oc2c1)NCCCn1ccnc1	-0.9	-7	-0.6	3	2	-0.6	2	5	-2.1	/

Brought forward from above: two compounds, followed by the next part.
SMILES	AF4-AF9 inh	Calb FLC	Bfl-1 A1 inh	rRNA inh HTS	rRNA inh HTS OD600	rRNA inh HTS RFP	Beta cell apopt	T cruzi repl	RanGTP-Impb inh	Vif A3G
C(=C\CSc1nnnn1-c1ccccc1)/CSc1nnnn1-c1ccccc1	/	-8	0.0	/	/	/	-2	21	-0.7	-3%
O=C(COc1ccc2ccc(=O)oc2c1)NCCCn1ccnc1	-0.9	-7	-0.6	3	2	-0.6	2	5	-2.1	/
O=C(C1CCN(c2nc3nonc3nc2N2CCCCC2)CC1)N1CCOCC1	0.7	0	0.0	15	11	0.7	-7	-5	1.6	-4%
COc1ccc(/C=N/NC(=O)CCC(=O)Nc2ccccc2)cc1OC	-0.3	37	0.4	14	9	0.8	-1	-12	-4.2	-11%
CC(=O)c1cc(-c2ccc(F)cc2)n(CCC(=O)Nc2cccc(C)n2)c1C	5.5	-4	0.3	5	2	1.2	10	-4	1.5	4%
OC(COc1ccc(CNCCc2ccc(C(F)(F)F)cc2)cc1)CN1CCCCC1 (stereo not given)	14	-11	0.3	0	-2	4.3	6	59*	-0.2	/
CCOC(=O)N1CCN(S(=O)(=O)N2CCCC(C(=O)NCCCN3CCC(C)CC3)C2)CC1 (stereo not given)	-1.2	-11	-0.5	9	5	2.4	-3	-7	0.4	-2%
COc1ccc(-c2cc3ncc(-c4ccccc4)c(N)n3n2)cc1	-5.4	?	/	4	11	-2.6	/	12	-4.6	0%
COc1ccc2[nH]c(=O)c(CN(CC3CCCO3)C(=S)Nc3cccc(C)c3)cc2c1 (stereo not given)	4.9	2	-0.3	2	0	1.5	2	47	?	-4%
CC(C)NC(=O)NC(=O)CSc1nncs1	-1.1	-8	1.2	14	22	3.1	-1	-6	-1.4	/
COc1ccc(OCC(O)CNC(=O)Nc2ccc(F)cc2)cc1 (stereo not given)	-2.9	2	-0.9	-8	-2	4.1	2	-3	5.9	-11%
Cc1cc(C)n(-c2ccc(C(=O)NCc3ccc4c(c3)OCO4)cc2)n1	/	-28	-0.4	/	/	/	41	-4	4.4	2%
CC(=O)Nc1cccc(Oc2ccc(-c3noc(C)n3)cc2)c1	/	-1	1.0	/	/	/	-2	3	0.6	-1%
Cc1ccc(Cn2c(SCC(N)=O)nc3c2c(=O)n(C)c(=O)n3C)cc1	5.0	-2	0.0	4	9	-5.0	2	1	2.5	1%

These rows are one share of the data; the hit share may differ from the screen's.
